Assay outcomes from PubChem BioAssay.
T cruzi inh – blocks replication of Trypanosoma cruzi. hit rate 1.4% among 300,000. T. cruzi beta-gal in NIH3T3, luminescence, 90 h. inhibition, % (concentration not given with the values);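 active = mean inhibition across valid replicates above about 55%, limit read from the data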;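 also: signal also drops with host cell toxicity which is not excluded here; 0% = plate median of DMSO wells and 100% = zero luminescence signal; higher percent means less beta-gal luminescence so fewer parasites; stock transfer was 50 nL into about 50 µL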
Ecoli rRNA inh – inhibitors of bacterial rRNA selective over humanized ribosomes. E. coli WT GFP vs humanized-ribosome RFP mutants, fluorescence, 24 h; stronger effect = lower value; DMSO median 0, no signal -100. GFP signal change (wild-type ribosome), % (no concentration beside the values). hit rate 1.6% among 350,000;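 active = significant combined selectivity score with lowered wild-type GFP, culture density cut under 30%, mutant RFP and density less affected; inactive = any of these conditions unmet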; also: one replicate is shown; some compounds called inactive have numbers as strong as hits
FGF22 binding – FGF22 (human) thermal shift binding. calls only at 9.99 µM. recombinant FGF22 thermal shift, SYPRO orange fluorescence; percent of sucrose octasulfate shift, DMSO zero. hit rate 1.5% among 340,000. AID 651658;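 active = melting point raised past a set limit in the mean and every replicate; three in four hits are not shown here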
Target sequence (Q9HCT0 whole entry, looked up): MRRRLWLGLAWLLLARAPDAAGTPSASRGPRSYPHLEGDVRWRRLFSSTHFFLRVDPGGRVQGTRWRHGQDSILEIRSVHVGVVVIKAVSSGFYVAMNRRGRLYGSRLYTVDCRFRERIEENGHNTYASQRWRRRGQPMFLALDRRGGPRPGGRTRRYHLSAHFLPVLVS
UCH37 inh – blocks the human deubiquitinase UCH37; Q9Y5K5; purified proteasome/UCH37, Ub-AMC cleavage fluorescence; inhibition, % (concentration not given with the values); hit rate 0.33% among 330,000; AID 588478;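 active = mean of two replicates above 20%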;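 also: 0% = compound-free wells with enzyme and 100% = wells lacking proteasome; stock transfer was 100 nL into about 20 µL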
Target sequence (Q9Y5K5 whole entry, looked up): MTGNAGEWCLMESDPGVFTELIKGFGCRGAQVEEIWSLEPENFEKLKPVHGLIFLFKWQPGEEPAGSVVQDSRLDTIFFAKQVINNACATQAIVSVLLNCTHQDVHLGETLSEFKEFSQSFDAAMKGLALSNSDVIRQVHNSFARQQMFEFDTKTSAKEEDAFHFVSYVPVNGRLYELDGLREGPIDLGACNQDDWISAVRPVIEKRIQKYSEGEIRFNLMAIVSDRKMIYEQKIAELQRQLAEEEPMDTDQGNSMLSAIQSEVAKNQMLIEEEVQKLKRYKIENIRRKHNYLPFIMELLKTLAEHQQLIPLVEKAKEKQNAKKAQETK
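System: Proteasome-associated human UCH37 deubiquitinase; Input: 0.15 nM proteasome in added enzyme buffer; Also added: Ub-AMC substrate from 1 µM stock; Incubation: 30 min compound-proteasome preincubation then 25 min substrate reaction, room temperature; Detection: fluorescence, ex 355 nm, em 460 nm; Read-out: % inhibition of Ub-AMC cleavage fluorescence; Benchmarks: no-proteasome and no-compound wells.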
Bfl-1 A1 inh – inhibitors of the anti-apoptotic protein A1, read as caspase activation; MEF A1-2A-BIM cells, Caspase-Glo 3/7 luminescence, 3 h; percent of clofoctol response, vehicle zero; caspase activation, % (test concentration not listed); hit rate 0.066% among 330,000; AID 2462;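 active = over half of replicate activation scores above 10%, or exactly half above 10 with the replicate mean above 10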;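 also: wells of about 30 µL received 50 nL stock; many hits fall short of the cut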
MLL AF4-AF9 inh – MLL-AF4/AF9 protein interaction inhibition; AlphaScreen, biotin-AF4 peptide binding to FLAG-AF9; inhibition, % at 10 µM; hit rate 0.47% among 350,000;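 active = every replicate reaching a set inhibition limit, whatever the replicate mean, cut at about 25% in these data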;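 also: 0% = plate neutral control median and 100% = total signal loss; the record names both 10 and 1 µM as test concentration; the first replicate is given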
Target sequence (P42568 whole entry, looked up): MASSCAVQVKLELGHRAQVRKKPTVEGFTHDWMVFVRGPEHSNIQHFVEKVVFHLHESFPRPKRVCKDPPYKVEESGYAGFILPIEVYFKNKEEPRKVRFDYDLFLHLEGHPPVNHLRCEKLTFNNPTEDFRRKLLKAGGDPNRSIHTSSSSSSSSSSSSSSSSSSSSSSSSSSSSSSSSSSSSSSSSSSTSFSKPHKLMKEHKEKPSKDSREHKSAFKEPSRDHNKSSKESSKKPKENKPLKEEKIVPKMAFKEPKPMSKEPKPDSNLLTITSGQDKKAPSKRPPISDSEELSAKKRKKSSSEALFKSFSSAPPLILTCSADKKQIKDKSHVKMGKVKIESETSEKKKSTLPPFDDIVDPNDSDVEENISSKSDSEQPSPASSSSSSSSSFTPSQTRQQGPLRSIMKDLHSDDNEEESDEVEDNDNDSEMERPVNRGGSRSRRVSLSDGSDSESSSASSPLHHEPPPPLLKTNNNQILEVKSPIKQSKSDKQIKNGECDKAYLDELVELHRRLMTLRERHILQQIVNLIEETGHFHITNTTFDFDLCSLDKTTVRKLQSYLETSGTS
Beta apoptosis – blocks beta cell apoptosis; hit rate 0.8% among 300,000; INS-1E cytokine-induced death, ATP luminescence, 48 h; percent of positive-control rescue, neutral wells zero; protection from apoptosis, % (test concentration not listed);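 active = all replicates at 75% or more, or half of them and the mean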;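 also: 0% = cytokine-treated negative control wells and 100% = positive control rescue; higher means more ATP so stronger rescue from cytokine killing; wells of about 40 µL received 100 nL stock; the first replicate is given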
E coli growth – E. coli growth inhibition; Escherichia coli growth, OD600, 23 h; stronger effect = lower value; OD600 absorbance (test concentration not listed); hit rate 0.21% among 330,000;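 active = OD600 absorbance below the run mean of sample wells minus 3.6 SD, in any replicate, cut at about 0.56 in these data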;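 also: stock transfer was 300 nL into about 60 µL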
Ecoli rRNA inh OD600 – recorded beside Ecoli rRNA inh, whose call it bears; OD600 change, %; measured here: OD600 growth;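 optical density of the mix in the first replicate; 0 = DMSO median and -100 = no signal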
Ecoli rRNA inh RFP – recorded beside Ecoli rRNA inh, whose call it bears; RFP signal change, %; measured here: RFP humanized mutant strains;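 first replicate; 0 = DMSO median and -100 = no signal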
Numbers without * were called inactive; i = inactive; x = no result given.

SMILES | T cruzi inh | Ecoli rRNA inh | Ecoli rRNA inh OD600 | Ecoli rRNA inh RFP | FGF22 binding | UCH37 inh | Bfl-1 A1 inh | MLL AF4-AF9 inh | Beta apoptosis | E coli growth
O=C1CSCC(=O)N1c1ncc(C(F)(F)F)cc1Cl | -15.1 | 13.1 | 8.0 | 1.2 | i | 4.4 | -0.3 | -10.8 | 0.9 | 0.644
Cc1ccc(N2CCN(C(=O)c3cc(-c4ccc(F)cc4)[nH]c3C)CC2C)cc1 (centres undefined) | 13.1 | 3.2 | 0.5 | 7.9 | i | 0.4 | 0.2 | 2.0 | -13.5 | 0.679
CCCCCCC(=O)Nc1nc(C)c(-c2csc(Nc3ccc(Cl)cc3)n2)s1 | 15.5 | x | x | x | x | -2.7 | -0.7 | x | 5.1 | x
NNc1nc(-c2ccccc2)cs1 | 63.3* | 0.0 | 3.8 | 3.0 | i | -0.1 | -1.6 | 5.5 | -5.9 | 0.632
Cc1ccc(C(=O)N2CCN(c3ncccn3)CC2)cc1S(=O)(=O)N1CCCCC1 | 11.8 | x | x | x | x | 1.2 | -0.2 | x | -7.7 | 0.688
O=C(Nc1ccc(S(=O)(=O)Nc2nccs2)cc1)c1cc(=O)[nH]c2ccccc12 | 2.1 | 1.2 | -2.7 | 3.2 | i | -1.3 | -0.2 | -9.4 | 0.6 | 0.649
O=C(CCC(=O)c1ccc(-c2ccccc2)cc1)Nc1cccnc1 | -11.0 | -6.6 | -4.5 | -3.2 | i | 3.2 | -0.6 | -11.4 | -1.1 | 0.675
O=C(O)/C(=C\c1ccc(Br)cc1)NC(=O)c1cccs1 | -7.6 | -0.2 | -3.2 | 4.2 | i | 5.5 | -0.4 | -1.1 | -5.4 | 0.67
CC1CCc2ccccc2N1C(=N)N(C)C (centres undefined) | -3.9 | 4.5 | 2.9 | -1.7 | i | 3.3 | 0.0 | 0.5 | -5.0 | 0.681
COc1ccc(CCNC(=O)CSc2nnc3c(n2)[nH]c2ccc(F)cc23)cc1OC | 15.7 | 8.4 | 14.1 | 1.3 | i | 3.1 | 1.0 | -3.6 | -8.3 | 0.637
CCCCNC(=O)c1onc(CSc2ccc(F)cc2)c1C(=O)O | -6.8 | -18.6 | -11.4 | 0.4 | i | -1.1 | -0.9 | 1.8 | -9.4 | 0.724
Cc1cc(-c2ccc(C)c(S(=O)(=O)NCC3CCN(Cc4ccccc4F)CC3)c2)on1 | 16.1 | -16.1* | -8.4* | 5.9* | i | -1.5 | 0.3 | 2.8 | 2.0 | 0.718
CCN(CC)c1nc2c3c(nc4c(c3c1C#N)CC(=O)N4c1ccc(Cl)cc1)NC(C)=N2 | -14.9 | x | x | x | x | -181.5 | -0.2 | x | 0.6 | 0.708
COc1cc2c(cc1OC)C(O)C(O)(CO)C(C(=O)O)C2c1cc(OC)c(OC)c(OC)c1 (centres undefined) | x | 17.8 | 13.1 | 1.0 | i | -0.3 | x | -4.4 | x | 0.705
CCN(CC)S(=O)(=O)c1ccc(N2CCOCC2)c(NC(=O)c2ccccc2)c1 | 15.1 | -9.7 | -10.1 | -1.2 | i | 0.4 | 0.2 | 0.1 | 3.0 | 0.682
O=C(CCC(=O)Nc1ccccc1)NNC(=O)c1ccco1 | -2.0 | x | x | x | x | 0.5 | 0.8 | x | -0.3 | 0.682
Cc1ncc([N+](=O)[O-])n1CC(C)O (centres undefined) | -5.9 | -2.6 | 5.4 | -2.5 | i | 1.9 | x | -1.7 | x | 0.685
O=C(Nc1cccc(S(=O)(=O)N2CCCCC2)c1)c1cncc(Br)c1 | x | -23.1 | -20.4 | 1.1 | i | 1.2 | 1.4 | 1.4 | -1.2 | 0.706
O=C(NCCc1cccc(F)c1)C1CCCN(c2nc3ccccc3s2)C1 (centres undefined) | 4.1 | -6.4 | -6.6 | 1.2 | i | -0.1 | 1.0 | 39.3* | 5.9 | 0.712
Cc1c(C(=O)O)oc2c1ccc1ccccc12 | -14.4 | x | x | x | x | -0.3 | -2.0 | x | -3.1 | 0.746
O=S1(=O)CCOC[C@H](CC2CCCCC2)N1Cc1ccc(Cl)cc1 | -18.9 | 10.4 | 12.8 | 2.7 | i | 1.7 | -0.3 | -0.3 | -1.4 | x
COc1ccc(CCC(=O)N2CCCC(Nc3ccc(C)c(C)c3)C2)cc1OC (centres undefined) | 4.8 | 0.0 | -14.6 | -3.1 | i | 4.4 | 0.7 | 4.7 | -0.6 | 0.675
O=C(Nc1ccc(Cl)c([N+](=O)[O-])c1)c1ccncc1 | -5.4 | x | x | x | i | 2.8 | 0.5 | -3.8 | 11.4 | 0.608
CC(C)(C)c1ccc(OCCCC(=O)NNC(=O)c2ccccc2O)cc1 | 27.8 | -5.1 | -0.3 | 2.1 | i | 0.0 | -0.2 | 1.1 | x | 0.714
N#CCCn1cc(/C=C(\C#N)c2nc3ccccc3s2)c(-c2ccc(F)cc2)n1 | 29.2 | x | x | x | x | -88.2 | -0.8 | x | 11.1 | 0.744
CCOc1ccc(NC(=O)COC(=O)c2ccc3c(c2)OCCO3)cc1 | x | 24.1 | 18.1 | 1.6 | i | 3.9 | -1.1 | -3.0 | -3.2 | 0.678
CC(OC(=O)C1CCC1)C(=O)Nc1cc(Cl)cc(Cl)c1 (centres undefined) | -11.4 | -13.3 | -40.0 | 1.7 | i | 1.2 | 1.0 | -2.3 | 7.9 | 0.637
Cc1cc(=O)n2nc(N3CCCC(C(=O)NCCC4=CCCCC4)C3)sc2n1 (centres undefined) | 4.6 | x | x | x | x | 4.2 | 0.3 | x | -2.0 | 0.771
CC(=O)Nc1nonc1NC(=O)COc1ccccc1 | 0.5 | -3.3 | 2.8 | 8.9 | i | -0.9 | 0.0 | 1.6 | -3.9 | 0.694
CC(=O)C1=C(C)NC(=O)NC1c1ccccc1 (centres undefined) | -15.0 | x | x | x | x | 0.4 | 1.7 | x | x | 0.773
Cc1cccc(NC(=O)Cc2coc3ccc4ccccc4c23)n1 | -5.7 | x | x | x | x | -1.4 | 0.2 | x | -2.3 | 0.668
O=C(c1ccc(S(=O)(=O)Nc2ccccc2F)cc1)N1CCN(c2ccccc2O)CC1 | -1.4 | 1.0 | 0.4 | 0.2 | i | 3.8 | -0.7 | 7.6 | 2.3 | 0.693
Brc1ccc(CSc2nnc(-c3ccccn3)n2Cc2ccco2)cc1 | 6.6 | x | x | x | x | 3.5 | -0.4 | x | 2.2 | 0.732
CCc1nnc(NS(=O)(=O)c2ccc(NC(=S)NC(=O)c3ccc(Br)cc3)cc2)s1 | -7.2 | -51.4 | -77.8 | -23.1 | i | 7.0 | -0.2 | 6.5 | -0.5 | 0.673
Cc1cc(NC(=O)CCC2CCCCC2)no1 | -2.0 | x | x | x | x | 1.5 | -0.7 | x | -4.5 | 0.643
COc1ccccc1N1CC(C(=O)Nc2nnc(SCc3cccnc3)s2)CC1=O (centres undefined) | -5.9 | 5.2 | 0.6 | 4.2 | i | 2.4 | -1.3 | -1.0 | -0.5 | 0.68
Cc1cccc(C(=O)NC(=S)NNC(=O)c2ccccc2Cl)c1 | 12.8 | -47.2 | -59.8 | -24.6 | i | -0.4 | -0.7 | 1.8 | 7.4 | 0.673
CCn1c(CNc2ccc(Cl)cc2)nnc1SCC(=O)OC1CCCCC1 | -2.3 | x | x | x | x | 3.8 | 1.1 | x | 2.6 | 0.699
O=C(NC1CCCC1)C1CCC(CNS(=O)(=O)c2cccs2)CC1 (centres undefined) | 3.4 | x | x | x | x | 2.4 | 0.0 | x | -3.2 | 0.71
COc1cc(NC(=O)c2ccc(Br)cc2)ccc1NC(=O)c1cc2ccccc2o1 | -9.1 | 15.7 | 18.0 | 2.3 | i | -54.9 | 1.4 | -1.1 | -6.2 | 0.613
CN1CCN(C(=O)c2ccc(CNS(=O)(=O)c3ccc(F)c(Cl)c3)cc2)CC1 | 1.5 | 15.1 | 11.8 | 4.8 | i | 0.2 | -0.4 | 0.1 | -8.1 | 0.642
CCOC(=O)c1ccc(NC(=O)CCOc2ccccc2)cc1 | -5.5 | x | x | x | x | 2.3 | -0.2 | x | -4.5 | 0.801
O=C(Nc1nnc(C2CC2)s1)c1cccc(S(=O)(=O)N2CCc3ccccc32)c1 | -2.8 | x | x | x | x | 0.7 | 0.7 | x | x | 0.731
c1ccc2c(-c3cc(C4CCNCC4)[nH]n3)cccc2c1 | 22.9 | -45.2 | -37.2 | -12.6 | i | 3.6 | -0.3 | 10.5 | 5.4 | 0.705
C=CCSc1ccsc1C(=O)O | -4.5 | x | x | x | x | 3.4 | 0.2 | x | 3.6 | 0.694
O=C(Nc1ccccc1)N1C(=O)C2(OCCO2)c2ccccc21 | -3.0 | x | x | x | x | 0.1 | -0.3 | x | -0.8 | 0.725
CCOc1cc(N2CCOCC2)c(OCC)cc1NC(=O)c1ccc(OCc2c(C)noc2C)c(OC)c1 | 6.3 | 2.4 | 1.8 | -0.1 | i | -12.1 | 0.5 | -5.2 | 1.1 | 0.697
O=C1C2CC=CCC2C(=O)N1c1ccc(NCCc2cccc(F)c2)c([N+](=O)[O-])c1 (centres undefined) | 42.4 | x | x | x | x | 5.3 | -0.3 | x | 3.8 | 0.75
COc1ccnc(Oc2ccc(F)cc2)c1-c1ncn[nH]1 | -24.2 | 11.2 | 15.1 | -1.8 | i | -1.4 | 0.9 | 0.5 | -0.9 | 0.693
COc1cccc2cc(C(=O)C3=C(O)C(=O)N(CCN4CCOCC4)C3c3ccc(C)o3)oc12 (centres undefined) | -15.9 | -0.8 | 7.3 | -1.1 | i | 11.5 | 0.8 | 0.8 | -6.8 | 0.66
CCOC1=NN(c2ccccc2)C(=O)/C1=C\N(C)C | -12.5 | 7.6 | 4.5 | 3.3 | i | 14.8 | -7.5 | 1.7 | -5.1 | x
CCC(CC)NCCOC(=O)c1ccc([N+](=O)[O-])cc1 | 5.1 | -3.1 | 6.6 | -1.3 | i | 1.2 | 1.1 | 26.1* | 0.4 | 0.625
COc1ccc(CNC(=O)Cn2cc([N+](=O)[O-])nc2C)cc1 | -15.9 | x | x | x | x | 4.2 | -0.5 | x | -8.7 | 0.684
Cc1cccc(CN2CCC(CNC(=O)Cn3ncc4c([nH]c5ccccc54)c3=O)CC2)c1 | 27.3 | -0.4 | -1.4 | -1.9 | i | 2.4 | 1.6 | -2.8 | x | 0.705
O=C(NCc1nc2ccccc2[nH]1)c1c(F)c(F)c(F)c(F)c1F | 6.7 | 8.2 | 9.9 | 3.3 | i | 0.0 | 0.9 | 0.6 | -2.2 | 0.728
O=C(COc1ccccc1)NNc1nc2c(F)cc(F)cc2s1 | 1.5 | -8.8 | -8.5 | -2.3 | i | 1.9 | 0.3 | -3.0 | -5.7 | 0.656
COc1cc(C2=NC(CO)(CO)CO2)cc(OC)c1OC | -10.1 | 14.7 | 0.0 | -1.2 | i | 2.5 | 1.0 | 3.8 | -6.4 | 0.711

An excerpt. The share of hits here may be higher or lower than overall.
